miR-21 reporter: raises the signal of a miR-21 reporter. Potency, µM (doses to about 38.3 µM), without a hit: top-dose reporter change, positive = more light. 340,000 tested, under 10 active. AID 2288. HeLa miR-21 FLuc reporter, luciferase, 48 h; active = well fitted rising curve with a large enough effect; inconclusive = small, poorly fitted or top-dose-only effect; inactive = no such curve, though single readings can be large or run the other way;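 note: % of control where 0% means no effect; miR-21 action dims this reporter so a rising signal means less miR-21 action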
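HeLa cells endogenously expressing miR-21, stably carrying CMV-driven firefly luciferase with a downstream miR-21 binding site, 2000 cells/well. Titrations up to approximately 40 uM, 48 hours; luciferase luminescence read.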
Active calls of the source: *; ? = inconclusive; [ ] = remark or other dose. Some of the compounds tested; the hit share may differ from the screen's.

SMILES	miR-21 reporter
CC(=O)N1CCCC1c1nc2ccccc2n1Cc1ccccc1F (stereo not drawn)	?
CCOc1ccc(NS(=O)(=O)c2ccc3[nH]cc(C(=O)N(C)Cc4ccccc4)c(=O)c3c2)cc1	0%
CCOc1ccc(-c2nc3c(c(SCC(=O)Nc4ccccc4C)n2)Cc2ccccc2O3)cc1	3%
CCOC(=O)c1ccccc1NC(=O)Cn1ncc2c([nH]c3ccccc32)c1=O	1%
CCC(=O)N1CCc2cc(Br)cc(S(=O)(=O)NCCc3ccc(C)cc3)c21	3%
CN(Cc1ccccc1)C(=O)C1CCN(S(=O)(=O)c2ccc3c(c2)oc(=O)n3C)CC1	-1%
COc1ccc(C2C=C(c3ccc(Cl)c(Cl)c3)Nc3ncnn32)cc1 (stereo not drawn)	-33%
O=C(COc1ccc(Cl)cc1)Nc1ccc(-c2nc3ccccc3s2)c(O)c1	-24%
CCCCN1C(C(=O)c2ccccc2)=C(OC(=O)CC)c2ccccc2S1(=O)=O	?
CCn1cc(S(=O)(=O)c2cc(C)cc(C)c2)c(=O)c2cc(F)c(N3CCCCC3)cc21	5%
Cc1ccc(N2CC(c3nnc(NC(=O)c4ccco4)s3)CC2=O)cc1C (stereo not drawn)	1%
Cc1ccccc1CSc1ncc(Cl)c(C(=O)Nc2nc3ccc(F)cc3s2)n1	0%
CCCOc1ccc(N2CC(C(=O)Nc3cccc(Cl)c3Cl)CC2=O)cc1 (stereo not drawn)	0%
COc1cccc(C(=O)N2CCc3cc(OC)c(OC)cc3C2COc2ccc3c(C)cc(=O)oc3c2)c1 (stereo not drawn)	-12%
O=C(NC1(C(F)(F)F)NC(=O)N(CCc2ccccc2)C1=O)c1ccc(Cl)cc1 (stereo not drawn)	-2%
COc1ccc(-n2nc(C(=O)Nc3cc(C)c(Cl)cc3OC)c3c4ccccc4n(C)c3c2=O)cc1	0%
CCOC(=O)c1ccc(Nc2cc(-c3ccccc3)nc(C)n2)cc1	-1%
Cc1cccc(NC(=O)C(Cc2ccccc2)n2cccc2)c1C (stereo not drawn)	3%
COc1ccc(NC(=O)c2ccco2)cc1NC(=O)COc1ccccc1Cl	-2%
Cc1ccc(NC(=O)C(=O)NCC(c2ccc3c(c2)OCO3)N2CCN(C)CC2)cc1C (stereo not drawn)	-5%
O=C(CSc1ncc2c(n1)-c1cc(Cl)ccc1N(Cc1ccccc1)S2(=O)=O)NCCc1ccccc1	1%
COc1ccc(Cl)cc1NC(=O)Cn1nc(C(F)(F)F)c2c1CCCC2	6%
O=C(NCc1ccccc1F)c1cccc(NC(=O)N2CCSc3ncccc32)c1	-1%
COC(=O)c1c(SCC(=O)Nc2cc(OC)cc(OC)c2)[nH]c2ccc(C)cc2c1=O	1%
O=C(c1ccco1)n1nc(-c2ccc(Cl)cc2)nc1NCc1ccc(F)cc1	-1%
Cc1ccc(C)c(N2CCN(S(=O)(=O)c3ccc4[nH]c5c(c4c3)CCCC5)CC2)c1	13%
CCc1ccc(S(=O)(=O)c2nnn3c2nc(Nc2cc(OC)cc(OC)c2)c2cc(Cl)ccc23)cc1	-5%
O=C(Nc1nc2n(n1)C(c1ccccc1)C=C(c1ccccc1)N2)c1ccccc1 (stereo not drawn)	1%
CC(=O)N(Cc1cccnc1)c1nc2c(F)cc(F)cc2s1	-14%
CC(=O)Nc1ccc(S(=O)(=O)N2CCC(N3CCN(Cc4ccc(C)cc4)C(=O)C3=O)CC2)cc1	0%

Brought forward from above: 7 compounds, then new ones.
SMILES	miR-21 reporter
COC(=O)c1c(SCC(=O)Nc2cc(OC)cc(OC)c2)[nH]c2ccc(C)cc2c1=O	1%
O=C(c1ccco1)n1nc(-c2ccc(Cl)cc2)nc1NCc1ccc(F)cc1	-1%
Cc1ccc(C)c(N2CCN(S(=O)(=O)c3ccc4[nH]c5c(c4c3)CCCC5)CC2)c1	13%
CCc1ccc(S(=O)(=O)c2nnn3c2nc(Nc2cc(OC)cc(OC)c2)c2cc(Cl)ccc23)cc1	-5%
O=C(Nc1nc2n(n1)C(c1ccccc1)C=C(c1ccccc1)N2)c1ccccc1 (stereo not drawn)	1%
CC(=O)N(Cc1cccnc1)c1nc2c(F)cc(F)cc2s1	-14%
CC(=O)Nc1ccc(S(=O)(=O)N2CCC(N3CCN(Cc4ccc(C)cc4)C(=O)C3=O)CC2)cc1	0%
CN1CCN(C(CNC(=O)C(=O)Nc2cccc(Cl)c2)c2ccc3c(c2)OCO3)CC1 (stereo not drawn)	-17%
O=C1COc2ccc(-c3cc(-c4ccc(Cl)cc4)c4c(n3)-c3ccccc3OC4)cc2N1	-2%
Cc1ccc(NC(=O)Cn2c(=O)n(CCC(=O)NCc3ccccc3Cl)c(=O)c3ccccc32)cc1	-8%
Cc1ccc(N(C)S(=O)(=O)c2c(-c3ccccc3)csc2C(=O)O)cc1	1%
O=C(NCCc1csc(-c2ccc(F)cc2)n1)c1c(F)cccc1Cl	-1%
O=C(c1ccc(Cl)cc1)N1CCC(c2nc3ccccc3o2)CC1	-1%
CC1CCN(S(=O)(=O)c2ccc3c(ccc(=O)n3CC(=O)NCc3ccccc3Cl)c2)CC1	-6%
COc1cccc(NC(=O)C2CCN(S(=O)(=O)c3ccc4[nH]c5c(c4c3)CCCCC5)CC2)c1	27%
CCCN(CCC)CCCNC(=O)c1cnn(-c2ccc(F)cc2)c1-n1cccc1	-12%
CCOC(=O)c1[nH]c(C)c(CCC(=O)NCc2ccc(N(C)C)cc2)c1C	-9%
Cc1cc(C)cc(Nc2nc3ccccc3n3cnnc23)c1	-24%
O=C(C1CCN(S(=O)(=O)Cc2ccccc2)CC1)N1CCN(c2ccc(F)cc2)CC1	19%
COc1ccccc1NC(=O)CSC1=Nc2ccccc2C2=NC(CCC(=O)NCCc3ccccc3)C(=O)N12 (stereo not drawn)	5%
COc1cc(C(=O)Nc2nonc2-c2ccc(C)c(C)c2)cc(OC)c1OC	5%
COC(=O)c1cc2sc(Cl)cc2n1CC(=O)Nc1cc(C)cc(C)c1	-8%
CCOC(=O)c1c(C)[nH]c(C)c1S(=O)(=O)N1CCCC(C(=O)N2CCN(c3cccc(C)c3C)CC2)C1 (stereo not drawn)	?
CCn1c2ccccc2c2cc(CN3CCN(Cc4ccc(Cl)cc4)CC3)ccc21	17%
Cc1ccc(/C=C/c2onc(C)c2S(=O)(=O)N2CCC(C(=O)N3CCN(c4ccccc4F)CC3)CC2)cc1	-6%
COc1ccc(OC)c(NC(=O)c2cc3c(n(-c4ccc(Cl)cc4)c2=O)CC(C)(C)CC3=O)c1	0%
Cc1ccc2c(=O)cc(C(=O)Nc3ccc(S(=O)(=O)N4CCCCC4)cc3)oc2c1C	-1%

The last seven records of the part before come first, to join the parts:
SMILES	miR-21 reporter
COc1cc(C(=O)Nc2nonc2-c2ccc(C)c(C)c2)cc(OC)c1OC	5%
COC(=O)c1cc2sc(Cl)cc2n1CC(=O)Nc1cc(C)cc(C)c1	-8%
CCOC(=O)c1c(C)[nH]c(C)c1S(=O)(=O)N1CCCC(C(=O)N2CCN(c3cccc(C)c3C)CC2)C1 (stereo not drawn)	?
CCn1c2ccccc2c2cc(CN3CCN(Cc4ccc(Cl)cc4)CC3)ccc21	17%
Cc1ccc(/C=C/c2onc(C)c2S(=O)(=O)N2CCC(C(=O)N3CCN(c4ccccc4F)CC3)CC2)cc1	-6%
COc1ccc(OC)c(NC(=O)c2cc3c(n(-c4ccc(Cl)cc4)c2=O)CC(C)(C)CC3=O)c1	0%
Cc1ccc2c(=O)cc(C(=O)Nc3ccc(S(=O)(=O)N4CCCCC4)cc3)oc2c1C	-1%
CCCN1C(C(=O)c2ccccc2)=C(OC(=O)C(C)(C)C)c2ccccc2S1(=O)=O	?
COc1ccc(-c2cn3c(n2)sc2cc(C(=O)NCCCc4ccccc4)ccc23)cc1	0%
COc1ccc(NC(=O)C2=C(C)Nc3c(C(=O)Nc4ccc(C)cc4)cnn3C2c2cccc(Cl)c2)cc1 (stereo not drawn)	12%
Fc1ccc(F)c(Nc2c3c(nc4ccc(Cl)cc24)CCC3)c1	19%
COc1cccc(NC(=O)c2oc3ccccc3c2NC(=O)COc2ccccc2C)c1	-43%
O=C(Cc1ccc(-c2ccccc2)cc1)NCCS(=O)(=O)N1CCN(c2ccccc2F)CC1	15%
CCOc1ccc(-n2c(SCC(=O)Nc3ccc(F)cc3)nc3c([nH]c4ccccc43)c2=O)cc1	-5%
O=C(NCc1ccco1)c1ccc2c(c1)N(Cc1ccc(Cl)cc1)C(=O)c1ccccc1S2	-2%
CCS(=O)(=O)NCCc1csc2nc(-c3ccc(C)cc3)nn12	-3%
COC(=O)c1ccc(NC(=O)CC2C(=O)N(c3ccc(Cl)cc3)C(=O)N2Cc2cccs2)cc1 (stereo not drawn)	26%
COc1cc(OC)c(NC(=O)CCCn2nc(C)c3sc4ccccc4c3c2=O)cc1Cl	-76%
CCCSc1ncc(Cl)c(C(=O)Nc2sc(C(C)=O)c(C)c2C(=O)OCC)n1	0%
Cc1nn2c(=O)cc(COc3ccc(/C=C(\C#N)C(=O)Nc4ccccc4C)cc3)nc2s1	-5%
O=C(Nc1ccc(N2CCN(C(=O)c3cccs3)CC2)cc1)c1ccc([N+](=O)[O-])o1	29%
COc1cccc(CNC(=O)CCCN2C(=O)CSc3c2c(C)nn3-c2ccccc2)c1OC	12%
CC(C)Oc1ccc(CNC(=O)c2ccc3c(c2)N(C)C(=O)C2CCCCN32)cc1 (stereo not drawn)	-6%
Cc1c(Cl)cccc1NC(=O)CSc1ncccc1C(=O)Oc1ccccc1Cl	-6%
Cc1ccccc1Cn1c(C(=O)O)c(CNCc2cccc(F)c2)c2ccccc21	-4%
COc1cc(NC(=O)CCn2nc(C)cc2C)cc(OC)c1OC	0%
CCc1ccc(C(=O)COC(=O)C(Cc2c[nH]c3ccccc23)NC(=O)c2ccc(CC)cc2)cc1 (stereo not drawn)	5%
COc1ccccc1CNC(=O)CCC1N=C2c3ccccc3N=C(SCC(N)=O)N2C1=O (stereo not drawn)	0%
O=C1C2=C(C(=O)c3ccccc31)C1O[C@](CCCCN3C(=O)c4ccccc4C3=O)(Cc3ccccc31)O2	0%[7.66 µM]
Cc1cc(C)cc(NC(=O)CSc2nc3c(cnn3-c3ccc(F)cc3)c(=O)[nH]2)c1	4%
CCn1c(=O)c(C(=O)Nc2ccc(C(C)=O)cc2)nc2ccccc21	-31%
COc1cccc2c1cc1c(=O)n(CC(=O)NCc3ccc(C)o3)nc(C)n12	-1%
CCCCNS(=O)(=O)c1ccc(C)c(-c2nnc3c4ccccc4c(C)nn23)c1	-29%
CCOC(=O)c1cnc2ccc(C)cc2c1Nc1ccc(N(CC)CC)cc1	19%
O=C(Nc1ccc(F)cc1F)c1cc(CN2CCOCC2)on1	-13%
Cc1ccc(NC(=O)c2ccccc2Br)c(C(=O)c2ccccc2)c1	8%
CC(C)c1ccc(CNc2nc(-c3ccco3)nn2S(=O)(=O)c2ccc(F)cc2)cc1	-52%
COc1ccc(CCNC(=O)c2ccc(Cn3c(SCc4ccccc4)nc4cccnc43)cc2)cc1	-1%
CCCN1CCN(CCCNC(=O)Cn2c(-c3cccs3)cc3cc(Cl)ccc32)CC1	-4%
CC(C)(C)C1CCc2c(sc(NC(=O)c3ccccc3F)c2C(=O)N2CCCCC2)C1 (stereo not drawn)	-3%
CC1CN(C(=O)N2CCC(C(=O)N3CCN(c4ccccc4)CC3)CC2)c2cc(Cl)ccc2O1 (stereo not drawn)	-5%
COc1ccc(CNC(=O)c2cnc3sc(N4CCOCC4)nn3c2=O)cc1	1%
CC(=O)N1CCCC1c1nc2ccccc2n1Cc1ccccc1 (stereo not drawn)	-1%
COc1ccc(-c2nc3n(n2)C(=O)CC(c2ccc(Cl)cc2)S3)cc1 (stereo not drawn)	0%
CC1CCN(c2nn3c(=O)c(C(=O)NCc4ccc(Cl)cc4)cnc3s2)CC1	0%
Cc1ccc(C)c(NC(=O)N2CCN3CCCCC3C2)c1 (stereo not drawn)	-2%
COc1ccc(NC(=O)CCCn2c(=O)c3cccn3c3ccccc32)c(OC)c1	-98%
COc1ccccc1-c1cc(C(=O)NCc2ccccc2)c2c(-c3ccc(C)cc3)[nH]nc2n1	26%
CCCCNC(=O)c1ccc2c(c1)N=C(CC)c1ccccc1S2	22%
Cc1ccccc1Cn1cc(S(=O)(=O)c2ccc(F)cc2)c(=O)c2cc3c(cc21)OCO3	2%
COc1ccc(NC(=O)Cn2c(SCc3ccc(C)cc3)nc3cccnc32)cc1OC	-3%
Cc1ccn2c(=O)cc(COc3ccc(NC(=O)COc4ccc(Cl)cc4)cc3)nc2c1	-1%
Cc1ccc(C)c(N2CCN(c3nc4ccccc4c4nc(-c5cccnc5)nn34)CC2)c1	-1%
Cc1ccc(CN2CCc3nc(N4CCN(C)CC4)ncc3C2)cc1	-1%
Cc1cccc(C(=O)N2c3ncnn3C3(CCCCC3)[C@@H]3CCCC[C@@H]32)c1	?
Cc1ccc(NC(=O)CN2C(=O)C(c3ccc(F)cc3)=NC2(C)C)c(C)c1	2%
O=C(Cn1c(=O)n(Cc2ccco2)c(=O)c2ccccc21)Nc1cccc(F)c1	4%

The listing continues:
SMILES	miR-21 reporter
Cc1ccc(CNC(=O)C2COc3ccccc3C2)cc1 (stereo not drawn)	-14%
Cc1cccc(C)c1NC(=O)C1CCN(S(=O)(=O)c2cccc3nsnc23)CC1	-4%
COc1ccc(CCNS(=O)(=O)c2ccc(N3CCCCS3(=O)=O)cc2)cc1	?
CCN(CC)CCNC(=O)C1CCCN(c2nnc(C)c3c(C)n(-c4ccc(Cl)cc4)nc23)C1 (stereo not drawn)	-4%
C=CCC(CC=C)(CNC(=O)C(=O)Nc1ccc(C)cc1)c1ccccc1	-19%
COc1ccc(NC(=O)C2CCN(S(=O)(=O)c3cccc(-c4noc(C)n4)c3)CC2)cc1OC	1%

Another view of 3 compounds above:
| smiles | miR-21 reporter |
| --- | --- |
| COc1ccc(CCNS(=O)(=O)c2ccc(N3CCCCS3(=O)=O)cc2)cc1 | ? |
| C=CCC(CC=C)(CNC(=O)C(=O)Nc1ccc(C)cc1)c1ccccc1 | -19% |
| CCOC(=O)c1ccc(Nc2cc(-c3ccccc3)nc(C)n2)cc1 | -1% |

Screening results deposited in PubChem by National Center for Advancing Translational Sciences (NCATS).
